Choline anaer gr – choline-fed anaerobic bacterial growth inhibition | Gram-negative bacterium anaerobic choline minimal medium, absorbance growth; stronger effect = lower value; many inactives read as strong as hits in the columns shown | calls only | hit rate 0.2% among 55,000 | AID 1963822;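 active = growth z-score on choline under -2 at 7 or 20 h with little or no fall on glycerol, limits in tiers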;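 note: stock transfer was 300 nL into about 50 µL; the organism is E. coli; final concentration not given here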
Choline anaer gr early – recorded beside Choline anaer gr, whose call it bears; z-score; measured here: choline growth z-score, timepoint 1;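 score of optical density at 7 h as mean of two plates; lower means less growth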
* marks the source's active call; other numbers are inactive results; i = inactive; & = joins results of further samples. An excerpt (hit frequency here may not be typical).

Values run as follows: Choline anaer gr, Choline anaer gr early
- Cc1c(-c2nnc(C3CC3)o2)c(S(=O)(=O)N2CCN(C(C)C)CC2)c(C)n1C
  i, -1.18
- O=C(CCc1nc(CS(=O)(=O)c2ccc(Cl)cc2)no1)NC1CCCC1
  i, 0.74
- CCOc1ccc(C(O)(C(C)C)C(CN2CCOCC2)c2ccccc2)cc1 (stereo unspecified)
  i, 0.35
- CC(C(=O)NCCCN1CCCC1)C1CCN(S(=O)(=O)c2cccs2)CC1 (stereo unspecified)
  i, 0.59
- CC(C)C(=O)N1CC(C)(C)c2cc(S(=O)(=O)N3CCCC3)ccc21
  i, -0.79
- O=C(CCc1nc(CSc2nc3ccccc3o2)no1)Nc1cccc(Br)c1
  i, 0.23
- CCOc1ccc(N2CC(C)Cn3c2nc2c3c(=O)n(C)c(=O)n2C)cc1 (stereo unspecified)
  i, -0.43
- Fc1ccc(CSc2nc3ncccc3[nH]2)c(Cl)c1
  i, 1.53
- CCOc1ccccc1N1CCN(C(=O)CCc2nnc3ccc(-c4ccc(Cl)cc4)nn23)CC1
  i, 0.97
- CCOC(=O)N1CCN(c2ccc(S(=O)(=O)C(C)(C)C)nn2)CC1
  i, -0.14
- Cc1sc(-c2noc(C3CCC3)n2)cc1NC(=O)CN1C(=O)COc2ccc(Cl)cc21
  i, 0.54
- Cc1nc2c(c(Nc3cccc(Cl)c3)n1)CCC2
  i, 0.01
- COc1ccc(C2CC(=O)N(c3ccc(OC)cc3)C(=O)C2)cc1
  i, -0.78
- Cc1c(-c2nn3c(Cc4ccccc4)nnc3s2)nnn1-c1ccc(Cl)cc1
  i, 0.32
- O=C(C1CCCC1)N1CC(OCc2cccc(F)c2)C1
  i, -1.91

Part of the list above in a different format:
| structure | Choline anaer gr | Choline anaer gr early |
| --- | --- | --- |
| Cc1c(-c2nn3c(Cc4ccccc4)nnc3s2)nnn1-c1ccc(Cl)cc1 | i | 0.32 |
| O=C(C1CCCC1)N1CC(OCc2cccc(F)c2)C1 | i | -1.91 |

Continued:
Values run as follows: Choline anaer gr, Choline anaer gr early
- Cc1cc(C)c2oc(C(=O)Nc3cccnc3)cc(=O)c2c1
  i, 1.38
- CCc1ccccc1NC(=O)C(C)n1nc(-c2ccccc2)c2c(c1=O)CCCC2 (stereo unspecified)
  i, -0.33
- Cc1oc(-c2ccccc2)nc1Cn1nc(C)c2c(C)onc2c1=O
  i, -0.2
- Cc1ccc(CNC(=O)c2cc(-c3ccccn3)nc3ccc(S(=O)(=O)N4CCOCC4)cc23)cc1
  i, -0.11
- O=C(CSc1ncnc2c1[nH]c1ccc(F)cc12)N1CCc2ccccc2C1
  i, 0.02
- Cc1c(Cl)cccc1NC(=O)C1Sc2nnc(-c3ccccc3)n2NC12CCCCC2 (stereo unspecified)
  i, 0.08
- O=C(COc1ccccc1)Nc1cccc(N2CCn3c(nc4cc(Cl)ccc43)C2)c1
  i, 0.23
- Cc1cc2c(OCC(CNC(C)(C)C)OC(=O)c3ccccc3)cccc2[nH]1 (stereo unspecified)
  i, -0.54
- Cc1cc2n(n1)CC(C)(C(=O)NCc1ccc(Cl)cc1)N(c1ccc3c(c1)OCCO3)C2=O (stereo unspecified)
  i, -0.05
- Cc1cc(C(=O)NCCCN2CCOCC2)on1
  i, -0.73
- COC(=O)c1cc(S(=O)(=O)NC(C)(C)C)c(C)n1C
  i, -0.23
- CN(C)c1ccc(N2C=C(C#N)S(=O)(=O)c3ccc(Cl)cc32)cc1
  i, 0.39
- Cc1cc(-c2ccc(=O)[nH]n2)cc(S(=O)(=O)N(Cc2ccccc2)Cc2ccccc2)c1C
  i, 2.21
- O=C(Nc1ccccc1Br)NC(C(=O)N1CCc2ccccc21)c1ccccc1 (stereo unspecified)
  i, 0.42
- CC(C)CN1CCN(S(=O)(=O)c2cc(-c3nnc(C4CC4)o3)co2)CC1
  i, 1.22

Additional structures
Values run as follows: Choline anaer gr, Choline anaer gr early
- COc1ccc(OC)c(C2CC(c3c(O)n(C)c(=S)n(C)c3=O)=NN2C(C)=O)c1 (stereo unspecified)
  i, -0.06
- CCOC(=O)c1c(S(=O)(=O)N2CCC(C(=O)Nc3ccc(NC(C)=O)cc3)CC2)c(C)n(C)c1C
  i, 0.46
- Cc1cc(C)cc(NC(=O)c2c(O)c3ccccc3[nH]c2=O)c1
  i, -0.2
- O=C(CSc1nnc2c3sc(N4CCCC4)nc3ncn12)Nc1ccc(F)cc1Cl
  i, -0.43
- CCN(C(=O)CSCc1nc(-c2ccc(OC)c(OC)c2)no1)c1cccc(C)c1
  i, 0.64
- CC(=O)N1CCCc2cc(NS(=O)(=O)CCc3ccccc3)ccc21
  i, 0.41
- Cc1cccc(-c2noc(Cc3nc(-c4ccc(F)cc4)cs3)n2)c1
  i, 1.76
- COc1ccc(C2NCCc3c2[nH]c2ccccc32)cc1 (stereo unspecified)
  i, 0.59
- Cc1c(S(=O)(=O)NC2COc3ccc(Br)cc3C2)cnn1C(F)F (stereo unspecified)
  i, -1.4
- Cc1ccc(-c2ccnc3c(C(=O)NCCc4c[nH]c5ccccc45)cnn23)cc1C
  i, 0.91
- CCCn1c(=O)c2sccc2n2c(CCC(=O)NC3CCCC3)nnc12
  i, -0.36
- CC(C)n1c(=O)c(=O)[nH]c2cc(-c3noc(C4CC(=O)N(c5ccccc5)C4)n3)ccc21 (stereo unspecified)
  i, 0.13
- Cc1ccccc1NC(=O)c1cn(C)c(=O)c2ccccc12
  i, 2.41
- O=C(Nc1ccsc1-c1nnc(C2CC2)o1)c1ccoc1
  i, 0.47
- CC(C)(C)c1ccc(-c2noc(-c3nn(-c4cccc(F)c4)ccc3=O)n2)cc1
  i, -0.1

(continued)
Values run as follows: Choline anaer gr, Choline anaer gr early
- Cc1ccccc1NC(=O)Nc1ccc(CCc2nc3ccccc3[nH]2)cc1
  i, 1.11
- COc1ccc(OCc2nnc(NC(=O)Nc3ccc(F)cc3)s2)cc1
  i, -3.19
- O=C(Cc1ccc(NC2=NC3CS(=O)(=O)CC3S2)cc1)NCc1ccc(F)cc1 (stereo unspecified)
  i, 1.2
- Cc1cc(OCC(O)Cn2c(C3CC3)nc3ccccc32)cc(C)c1Cl (stereo unspecified)
  i, 1.02
- CCC(O)(c1ccc(OC)cc1)C(CN1CCOCC1)c1ccc(Cl)cc1 (stereo unspecified)
  i, -0.82
- COc1ccc(Cn2ccc3nc(C)c(C(=O)Nc4ccc(OC)cc4OC)cc3c2=O)cc1
  i, 0.51
- Cc1ccc(CNS(=O)(=O)c2ccc(-c3nnc(C)o3)o2)o1
  i, -0.85
- CC(C)[C@H](NC(=O)CNC(=O)OC(C)(C)C)C(=O)N[C@H](C=O)C(C)C
  i, 0.18
- CCOc1ccc(C2c3cccn3-c3sc4c(c3CN2C(=O)NCCCOC)CCCC4)cc1 (stereo unspecified)
  i, 0.89
- Cc1cccc(NC(=O)Cn2cccc2-c2nc(-c3ccccc3)cs2)n1
  i, 0.77
- O=C(CCc1nc(CSc2nnc(-c3ccncc3)o2)no1)Nc1cc(F)cc(F)c1
  i, -0.28
- CCOc1ccc(N2CC(NC(=O)C3CCCC3)CC2=O)cc1 (stereo unspecified)
  i, -2.11
- O=C(NC1CCN(Cc2ccccc2)CC1)C1CCN(c2ccc(-c3ccccc3)nn2)CC1
  i, -1.78
- CC(=O)Nc1ccc(-c2noc(C3CCCN(C(=O)C4CCCCC4)C3)n2)cc1 (stereo unspecified)
  i, -0.62
- O=C(NCc1ccccn1)c1cccc(NC(=O)N2CCCCc3ccccc32)c1
  i, -1.53

The list continues.
Values run as follows: Choline anaer gr, Choline anaer gr early
- COc1ccc(NC(=O)C2CCN(S(=O)(=O)c3cn(C)cn3)CC2)cc1
  i, -0.54
- COc1ccc(C2C3=C(CC(C)(C)CC3=O)Nc3ccccc3N2C(C)=O)cc1 (stereo unspecified)
  i, -0.44
- CCCCN(CC)C(=O)C1CCCN(c2ccc(-c3ccc(C)cc3)nn2)C1 (stereo unspecified)
  i, -0.64
- O=C(NCc1ccccc1Cl)c1nnc2ccc(-c3ccccc3)nn12
  i, 1.08
- Cc1ccc(-c2noc(CCc3nnc4ccc(N5CCN(c6ccccc6)CC5)nn34)n2)cc1
  i, 1.58
- Cc1ccc2[nH]cc(CCNC(=O)CSCc3nnc(C(=O)Nc4ccccc4)s3)c2c1
  i, 0.75
- Cc1ccc2oc(=O)c3cc(C(=O)Nc4cnc5ccccc5c4)sc3c2c1
  i, 0.62
- Cn1c(=O)[nH]c(=O)c2c1nc1n2CCN1c1ccccc1
  i, 0.74
- CC(=O)Nc1ccc(C)cc1-c1nnc(SCC(=O)Nc2ccc(C)cc2C)[nH]c1=O
  i, -0.62
- Cn1c(=O)c(N2CCC(C(=O)NCCc3ccc(S(N)(=O)=O)cc3)CC2)nc2ccccc21
  i, 0.08
- O=C(Nc1cccnc1)C1CCN(S(=O)(=O)Cc2ccccc2)CC1
  i, 0.83
- COC(=O)c1nc2ccccc2nc1N1CCN(c2cc(C)ccc2C)CC1
  i, 0.76
- O=C1C(=O)N(C2CCN(C(=O)c3ccccc3Cl)CC2)CCN1Cc1ccc(F)cc1
  i, 0.34
- COc1ccc(CNC(=O)CSCc2cnn(-c3ccccc3)c2-n2cccc2)cc1OC
  i, -0.44
- COc1ccc(C(CNC(=O)c2oc3ccccc3c2C)c2c[nH]c3ccccc23)cc1 (stereo unspecified)
  i, 0.26

(continued)
Values run as follows: Choline anaer gr, Choline anaer gr early
- O=S1(=O)c2ccccc2NC(c2ccccc2Cl)N1Cc1ccccc1Cl (stereo unspecified)
  i, 1.26
- CC[C@H](C)NC(=O)CCc1nnc2n(CC(C)C)c(=O)c3sccc3n12
  i, -0.23
- O=C(NC1CC1)c1ccc2ccnc(N3CCN(c4ccc(F)cc4)CC3)c2c1
  i, -0.63
- Cc1ccc(-c2c(C(F)(F)F)nn3c(N(C)C)cc(C)nc23)cc1
  i, 0.93
- O=C(Cn1ncc2c(c1=O)N(C1CC1)C(=O)CS2)NCc1ccco1
  i, -1.11
- CCn1nc(C)c2ccnc(N3CCC(C(=O)NCCCN4CCC(N5CCCCC5)CC4)CC3)c21
  i, -0.26
- NC1=NCC2c3ccccc3Cc3ccccc3N12 (stereo unspecified)
  i, 0.05&-0.39
- O=C(O)C1CSCN1 (stereo unspecified)
  i, 0.66
- CC(C)N1CCn2c(nc3ccccc32)C1
  i, -0.37
- O=C(/C=C/c1ccc(O)cc1)c1ccc(O)cc1O
  i, -0.56
- Cc1sc(-c2noc(C3CC3)n2)cc1S(=O)(=O)Nc1ccc(Cl)cn1
  i, 0.39
- CCSc1ccc(-c2sc(-c3ccc(F)cc3)nc2C)nn1
  i, -0.03
- COC(=O)c1cc(S(=O)(=O)N(C)CC(=O)NCc2ccccc2Cl)cn1C
  i, -1.14
- O=C(Nc1cc(F)ccc1F)C1Oc2ccccc2NC1=O (stereo unspecified)
  i, -0.03
- CCCCCN1C(C(=O)c2ccccc2)=C(NC(=O)CN2C(=O)CCC2=O)c2ccccc2S1(=O)=O
  i, -1.91

Further records:
Values run as follows: Choline anaer gr, Choline anaer gr early
- Cn1c(SCC(=O)Nc2ccc(F)cc2F)nc2cc(-c3ccccc3)sc2c1=O
  i, 0.38
- Cn1c(SCC(=O)N2CCCCC2)nc2c(-c3ccccc3)csc2c1=O
  i, -0.38
- CCN(CC)C(=O)Cn1cnc2oc(C)c(C)c2c1=O
  i, -0.76
- CN1CCCc2cc(C(=O)NC3CCCCC3)sc21
  i, -0.4
- O=C(CN1c2ccc(F)cc2-c2ccccc2S1(=O)=O)NCC1CCCO1 (stereo unspecified)
  i, 0.82
- Cc1cc(NCCN(C)C)n2nc(C(F)(F)F)c(-c3ccccc3Cl)c2n1
  i, -0.85
- COc1ccc(-c2csc(-c3nc(-c4ccc(Br)cc4)cs3)n2)cc1OC
  i, -1.29
- COc1ccc(CC(=O)Nc2noc(-c3ccc(Cl)cc3)n2)cc1
  i, -0.24
- CN(CCCNC(=O)c1cc(-c2ccccn2)nc2ccccc12)Cc1ccccc1
  i, -0.85
- O=C(c1cc2ccc3cccnc3c2[nH]1)N1CCOCC1
  i, 1.1
- Cc1ccc(C(=O)Cn2nc3n(CC(C)C)c(=O)c4ccccc4n3c2=O)cc1
  i, 0.63
- COc1ccc(-c2ccc(=O)[nH]n2)cc1S(=O)(=O)Nc1cc(C)c(Br)cc1C
  i, 0.31
- COc1ccc(NC(=O)c2ccc(CN3C(=O)CSc4ncccc43)cc2)cc1OC
  i, -1.47
- Cc1nccn1Cc1noc(-c2cccs2)n1
  i, -0.14
- COc1ccc(CNc2ncc3c(n2)CC(c2ccccc2)CC3=O)cc1 (stereo unspecified)
  i, 0.43

Nothing new here: six of the compounds above.
Values run as follows: Choline anaer gr, Choline anaer gr early
- COc1ccc(CC(=O)Nc2noc(-c3ccc(Cl)cc3)n2)cc1
  i, -0.24
- CN(CCCNC(=O)c1cc(-c2ccccn2)nc2ccccc12)Cc1ccccc1
  i, -0.85
- O=C(c1cc2ccc3cccnc3c2[nH]1)N1CCOCC1
  i, 1.1
- Cc1ccc(C(=O)Cn2nc3n(CC(C)C)c(=O)c4ccccc4n3c2=O)cc1
  i, 0.63
- COc1ccc(-c2ccc(=O)[nH]n2)cc1S(=O)(=O)Nc1cc(C)c(Br)cc1C
  i, 0.31
- COc1ccc(NC(=O)c2ccc(CN3C(=O)CSc4ncccc43)cc2)cc1OC
  i, -1.47

Additional structures follow:
Values run as follows: Choline anaer gr, Choline anaer gr early
- COc1cc(OC)cc(-c2noc(CSc3ccc(-c4ccc(Br)cc4)nn3)n2)c1
  i, 0.96
- O=C(CCCN1C(=O)c2ccccc2C1=O)Nc1cccc2nsnc12
  i, -1.56
- COc1ccc(-c2cc(C(=O)NCC(c3ccccc3)N(C)C)no2)cc1 (stereo unspecified)
  i, -0.57
- Cc1cc(C)c(S(=O)(=O)NCCn2c(-c3ccc(F)cc3)nc3cccnc32)c(C)c1
  i, 0.03
- COc1ccc([C@H]2Sc3ccccc3N(CCN(C)C)C(=O)[C@H]2OC(C)=O)cc1
  i, 0.82
- Nc1nc2c(cnn2CCc2ccccc2)c2nc(-c3ccco3)nn12
  i, -0.16&0.75
- Cc1cc(C)n2nc(CN(c3ccc(F)cc3)S(C)(=O)=O)nc2n1
  i, -1.65
- COC(=O)c1ccc(-c2nc3cnccn3c2NC2CCCC2)cc1
  i, 1.33

Source: PubChem
